PINK1 modulator: PINK1 expression modulation; PINK1 immunofluorescence, high-content cytometry, 24 h; Potency, µM (titrated, usually from 76.6 µM), inactives show top-dose activation (PINK1 increase), usual class: activators; 0.2% of 410,000 active; active = well fitted activation curve with a large enough effect; inconclusive = small, poorly fitted or top-dose-only effect; inactive = flat fitted curve, though single readings scatter; cell line not stated here;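 further: % of control where 0% means no effect; nearly all actives have a fitted effect of over 65% in size; a mitochondrial uncoupler was the plate control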
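Compound titrations (5 concentrations, 24 h) on a stable cell line; DMSO and CCCP controls. Endpoint: fixed-cell PINK1 immunofluorescence with mitochondrial, cell and nuclear markers, scanned by microplate cytometer.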
ClpP mod: qHTS Assay for Activators of ClpP; ATP-dependent Clp protease proteolytic subunit (Bacillus subtilis (strain 168)), P80244; purified B. subtilis ClpP, FRET peptide cleavage, 20 min; Potency, µM (doses to about 57.5 µM), for inactives: at the highest dose activity change, negative = active; 1.9% of 340,000 active; AID 651965, 2013; active = well fitted falling curve with a large enough effect; inconclusive = small, poorly fitted or top-dose-only effect; inactive = no such curve, though single readings can be large or run the other way; further: the source files actives as falling curves though it sought activators and does not explain the sign; nearly all actives have a fitted effect of over 65% in size; many hits overshoot -100%
Target sequence (P80244 whole entry, looked up): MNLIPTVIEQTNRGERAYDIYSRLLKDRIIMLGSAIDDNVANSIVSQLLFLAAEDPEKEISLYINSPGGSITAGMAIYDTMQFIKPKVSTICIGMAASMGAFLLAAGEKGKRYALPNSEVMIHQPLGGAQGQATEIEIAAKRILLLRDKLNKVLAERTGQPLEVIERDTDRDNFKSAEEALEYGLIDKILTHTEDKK
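ClpP 10 microg/mL final, pH 8 Tris/KCl buffer with BSA, glycerol, Tween-20; compound pinned in; FRET-FV substrate; RT 20 min; Ex320/Em430; ΔFRET vs ADEP 5.8 microM, DMSO, no enzyme.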
An asterisk follows results filed as active; u = inconclusive. Potency means the concentration at half of the fitted maximal effect. These rows are one share of the data. The share of hits here may be higher or lower than overall.

Every second line gives: PINK1 modulator	ClpP mod
1: COc1ccc(Cl)cc1NC(=O)Cn1ncc2c3ccccc3n(C)c2c1=O
    1.3%	-13%
2: COC(=O)c1sc2cccc(F)c2c1S(=O)(=O)N1CCN(c2ccccc2OC)CC1
    1.8%	0.5%
3: CCCCCCn1cc(CN2CC(N3CCN(CCO)CC3)CS2(=O)=O)nn1 (stereo not given)
    -0.7%	0.3%
4: CCc1nc(SC)ncc1C(=O)NCc1cccc(Br)c1
    2.1%	2.2%
5: O=S(=O)(NCc1ccc(F)cc1)c1ccc2[nH]c3c(c2c1)CCCC3
    u	-14%
6: COc1ccc(CNC(=O)Cn2ncc3c([nH]c4ccccc43)c2=O)cc1
    3.5%	-19%
7: CCCN(C(=O)Cn1c(=O)oc2cc(Cl)ccc21)c1ccc(C(C)C)cc1
    2.0%	-2.5%
8: CCOc1ccc2c(c1)c(=O)c(S(=O)(=O)c1ccc(C)cc1)cn2Cc1ccccc1Cl
    0.3%	u
9: CCOc1ccc(NC(=O)Cn2c(=O)n(CCc3ccccc3)c(=O)c3c4c(sc32)CN(C(C)=O)CC4)cc1
    0.8%	-0.4%
10: CCN1C(C(=O)c2ccccc2)=C(OC(=O)COc2ccc(OC)cc2)c2ccccc2S1(=O)=O
    0.0%	1.8%
11: O=C1NC[C@H](Cc2ccccc2)N(C[C@@H]2CCCN2C[C@H](Cc2ccc(O)cc2)N2C[C@H](Cc3ccc(O)cc3)N(CCc3ccccc3)C(=O)C2=O)C1=O
    2.3%	2.0%
12: COc1ccc(NC(=O)c2c(-c3ccccc3)c(-c3ccccc3)nn(C)c2=O)c(OC)c1
    -0.4%	1.3%
13: CCN(Cc1nc(-c2ccc(OC)cc2)oc1C)S(=O)(=O)c1ccc(C)cc1
    1.9%	-17%
14: Cc1ccc(-c2noc(CSc3nnc(C)n3-c3ccc(F)cc3)n2)cc1
    0.7%	0.9%
15: CCCCCCCCN1C(=O)[C@H](CC(=O)NCCCCc2ccccc2)C[C@@]2(C(=O)OCC)CCCC=C12
    u	-3.8%
16: O=C(CSc1nc2c([nH]c3ccccc32)c(=O)n1-c1ccc(Cl)cc1)NC1CCCCC1
    u	-0.5%
17: O=C(CNC(=O)c1ccccc1Cl)OCc1cc(=O)n2nc(C3CC3)sc2n1
    -0.5%	-7.6%
18: CCOC(=O)CNC(=O)Nc1cc(C(=O)NCc2ccc(C(C)C)cc2)ccc1N1CCCC1
    -0.7%	-5.7%
19: Clc1ccc(Nc2nc(Nc3ccc(Cl)cc3)nc(N3CCOCC3)n2)cc1
    0.7%	-10%
20: Cc1ccccc1-c1noc(CCC(=O)Nc2cccc(C)c2C)n1
    0.3%	3.4%
21: Cc1cc(/C=C(\C#N)C(=O)Nc2ccccc2)c(C)n1-c1ccc(F)cc1
    7.6%	-1.4%
22: CCCCCCn1cc(CN2CC(N(C)CC)CS2(=O)=O)nn1 (stereo not given)
    2.6%	2.2%
23: COc1ccc(CNC(=O)c2nc(Cn3nc(C)c(Br)c3C)no2)cc1OC
    -2.8%	-5.0%
24: COc1ccc(-n2nc(C(=O)NCc3ccc(F)cc3Cl)c3c4ccccc4n(C)c3c2=O)cc1Cl
    0.9%	-5.0%
25: COc1ccc(-n2cc(-c3ccccc3)nc2SCC(=O)Nc2ccccc2)cc1Cl
    0.4%	1.7%
26: C=C1C=C(C(F)F)n2ncc(C(=O)NCc3ccc(OC)c(OC)c3)c2N1
    -0.5%	-0.8%
27: COc1ccccc1CNC(=O)c1ccc(C)c(-n2cnc3cccnc32)c1
    -0.8%	-0.2%
28: COc1ccc(-c2nnc(C3CCN(S(=O)(=O)c4ccc(C)c(C)c4)CC3)o2)cc1
    -0.6%	-6.3%
29: O=C(CSc1nccn1Cc1ccccc1)Nc1ccc2c(c1)OCO2
    -14%	-0.3%
30: CCOc1ccc(-c2nonc2NC(=O)c2oc3ccc(Cl)cc3c2C)cc1
    2.8%	0.3%
31: Cc1ccc(OCc2nc(-c3ccc(C(=O)NCCc4ccc(S(N)(=O)=O)cc4)cc3)oc2C)cc1
    8.8%	10%
32: CCOc1ccc2nc(N3CCCC(C(=O)Nc4ccc(Br)c(C)c4)C3)sc2c1 (stereo not given)
    -0.3%	-8.6%
33: Cc1ccccc1NC(=O)CN1C(=O)C(C)(C)c2ccccc21
    1.8%	0.0%
34: COc1cccc(CNC(=O)c2cccc(-n3c(C)nc4cccnc43)c2C)c1
    3.6%	-1.5%
35: CCCCN(CCCC)C(=O)c1cc2c(=O)n3ccccc3nc2s1
    3.5%	4.3%
36: CC(C)(C)c1ccc(C(=O)N2CCC(c3nc(-c4ccc(S(=O)(=O)N5CCCC5)cc4)no3)CC2)cc1
    -0.6%	-2.0%
37: CC(=O)N(Cc1cccnc1)c1nc2c(C)cc(C)cc2s1
    -0.4%	-4.3%
38: CCC(CC)C(=O)Nc1nnc(SCc2cc(=O)c3ccccc3[nH]2)s1
    7.4%	-0.7%
39: Cc1cccc(N(C)S(=O)(=O)c2cc3[nH]c(=O)c(=O)[nH]c3cc2C)c1
    3.2%	u
40: COc1ccc(/C=C\c2onc(C)c2S(=O)(=O)N2CCC(C(=O)Nc3cccc(Cl)c3)CC2)cc1
    2.4%	-9.2%
41: COc1ccc(S(=O)(=O)NCCc2csc(-c3cccc(F)c3)n2)cc1OC
    1.3%	-22%
42: COc1ccc2c(CNC3CCCCCC3)c(C(=O)O)n(Cc3ccc(C)cc3)c2c1
    0.4%	u
43: COc1cc(Cn2c(=O)oc3ccc(C)cc32)ccc1OCCC(C)C
    4.2%	-1.3%
44: CCOc1ccc(CCNC(=O)c2cc3c(-c4cccc(OC)c4)nn(C)c3s2)cc1OCC
    6.0%	3.9%
45: COC(=O)c1ccccc1NC(=O)CCCn1nc(C)c2sc3ccccc3c2c1=O
    13%	-4.0%
46: CC(C)(C)c1ccc(S(=O)(=O)Nc2ccc(O)c(Sc3nc4ccccc4s3)c2)cc1
    4.9%	-2.1%
47: Cc1cccc(CN2C(=O)c3ccccc3S(=O)(=O)c3ccc(C(=O)N(C)Cc4ccccc4)cc32)c1
    1.6%	0.0%
48: Cc1cc(C)cc(NC(=O)CCc2c(C)nc3nc(CNC(=O)c4cccc(F)c4)nn3c2C)c1
    0.9%	-0.2%
49: Cc1ccc(-n2c(SCc3nc(-c4ccccc4C)no3)nnc2-c2ccncc2)cc1C
    0.2%	0.2%
50: O=C1CCCc2cc(S(=O)(=O)N3CCCC(C(=O)NCc4ccc(Cl)cc4)C3)ccc2N1 (stereo not given)
    2.1%	0.1%
51: COc1cc2nc(NCCc3ccc(Cl)cc3)n3nc(-c4ccccc4)nc3c2cc1OC
    0.1%	u
52: Cc1cccc(CN2CCN(C3CN(Cc4cn(Cc5cccc(C(F)(F)F)c5)nn4)S(=O)(=O)C3)CC2)c1 (stereo not given)
    -0.2%	-0.6%
53: CCCCN(CC)CCCNC(=O)Cn1ncc2c3ccccc3n(Cc3ccccc3F)c2c1=O
    -0.8%	-29%
54: O=C(Nc1cc(F)ccc1F)c1cc2nc(-c3ccco3)cc(C(F)(F)Cl)n2n1
    3.3%	u
55: COc1ccc(NC(=O)CCNS(=O)(=O)c2ccc3c(c2)CCCC(=O)N3)cc1
    -1.8%	-6.0%
56: COc1ccc(Nc2nc(C)nc(N)c2S(=O)(=O)c2ccccc2)cc1
    2.4%	3.9%
57: CCOC(=O)N[C@H](Cc1c[nH]c2ccccc12)C(=O)Nc1cccc(Cl)c1
    -1.5%	1.1%
58: CCOc1ccc(C(=O)Nc2cc(-c3nc4ccccc4o3)ccc2C)cc1Cl
    0.8%	-23%
59: CC(=O)Nc1ccc(-n2c(CCC(=O)O)ccc2-c2ccc(Br)cc2)cc1
    0.4%	-4.0%
60: COc1ccc(Cn2ccc3nc(C)c(C(=O)NCc4cccc(OC)c4)cc3c2=O)cc1
    0.3%	u

(more compounds)
Every second line gives: PINK1 modulator	ClpP mod
61: COc1cc2c(NC3CCN(C(C)C)CC3)nc(N3CCCN(C)CC3)nc2cc1OCCOCCN(C)C
    -0.6%	4.3%
62: CCCNc1ccc(-c2nc(-c3ccncc3)no2)cc1[N+](=O)[O-]
    -0.1%	-0.6%
63: Cc1ccc(-n2nc(C(=O)N3CCN(c4cccc(C(F)(F)F)c4)CC3)c3c4ccccc4n(C)c3c2=O)cc1
    1.3%	1.1%
64: Cc1cccc(OCC(=O)OCc2cc(=O)n3nc(C4CC4)sc3n2)c1
    1.4%	-9.1%
65: COc1ccc(-c2nc(SCC(=O)NCCc3ccc(OC)c(OC)c3)n[nH]2)cc1
    -0.4%	-0.9%
66: CCCCOc1ccc(-c2nn(-c3ccccc3)cc2C2NC(=O)NC(C)=C2C(=O)OCC)cc1 (stereo not given)
    -1.0%	-8.9%
67: O=C1[C@H]2[C@@H]3CCN1CCC[C@@H]2C=C[C@@H]3c1ccc(Br)cc1
    4.0%	-0.4%
68: COc1ccccc1C(=O)Nc1sc(Nc2ccccc2)nc1C(N)=O
    0.3%	1.2%
69: O=C(O)c1cccc(NC(=O)c2cc3cc(Br)cc(Br)c3oc2=O)c1
    1.5%	-5.3%
70: COc1cccc(CNC(=O)c2cc(-c3cccc(OC)c3)n[nH]2)c1
    0.5%	0.9%
71: COc1ccc(CCNC(=O)Cn2nc(C)n3c(cc4cc(F)ccc43)c2=O)cc1OC
    1.0%	-3.7%
72: CN(Cc1ccccc1)C(=O)Cn1c(=O)c2cccn2c2ccc(F)cc21
    0.1%	u
73: CCC1CCCCN1CC(=O)N1CCCc2c1c(=O)oc1ccc(OCc3ccccc3)cc21 (stereo not given)
    u	-28%
74: Cc1ccccc1CCNC(=O)c1ccc2c(c1)nc1n2CCOC1
    -0.2%	0.8%
75: CCCN1CCN(CCCNC(=O)Cn2c(-c3cccs3)cc3ccccc32)CC1
    -0.8%	35µM*

Part of the list above in order of length of the SMILES, lowest first.
Every second line gives: PINK1 modulator	ClpP mod
68: COc1ccccc1C(=O)Nc1sc(Nc2ccccc2)nc1C(N)=O
    0.3%	1.2%
62: CCCNc1ccc(-c2nc(-c3ccncc3)no2)cc1[N+](=O)[O-]
    -0.1%	-0.6%
73: CCC1CCCCN1CC(=O)N1CCCc2c1c(=O)oc1ccc(OCc3ccccc3)cc21 (stereo not given)
    u	-28%
61: COc1cc2c(NC3CCN(C(C)C)CC3)nc(N3CCCN(C)CC3)nc2cc1OCCOCCN(C)C
    -0.6%	4.3%

Next structures
Every second line gives: PINK1 modulator	ClpP mod
76: COc1cc2ncc3c(-c4ccc(C)cc4)nn(-c4ccc(F)cc4F)c3c2cc1OC
    1.0%	-10.0%
77: Clc1cccc(-n2ncc3c(N4CCCCCC4)ncnc32)c1
    0.7%	0.1%
78: COc1ccccc1N1CCN(c2ncnc3onc(-c4ccc(F)cc4)c23)CC1
    -5.4%	-3.9%
79: CCn1c(NCc2ccc(OC)c(OC)c2)nc2ccccc21
    -1.3%	-5.0%
80: CCOc1ccc(C(=O)Nc2cccc(OCc3cc(=O)n4ccccc4n3)c2)cc1
    -1.4%	-0.8%
81: O=C(Cn1c(=O)oc2cc(S(=O)(=O)N3CCCCCC3)ccc21)Nc1ccc(F)cc1F
    0.2%	-0.9%
82: CC(=O)NCCNC(=O)CCCc1nnc2n(CCC(C)C)c(=O)c3sccc3n12
    3.3%	-25%
83: Cc1cccc(NC(=O)C(=O)NCC(c2cccnc2)N2CCN(Cc3ccccc3)CC2)c1 (stereo not given)
    0.7%	-0.4%
84: CCC(NC(=O)Nc1ccc(OC)c(OC)c1)c1c(-n2cccc2)sc2c1CCN(C)C2 (stereo not given)
    -1.2%	-1.8%
85: CC(C)c1ccc(NS(=O)(=O)c2ccc3nc(-c4ccccc4)[nH]c3c2)cc1
    2.3%	0.4%
86: COc1ccccc1CNC(=O)C(=O)NCC(c1cccnc1)N1CCN(c2ccccc2)CC1 (stereo not given)
    2.4%	-2.9%
87: Clc1ccc(C(c2ccccc2)c2c[nH]c3ccccc23)s1 (stereo not given)
    15%	-3.2%
88: COc1ccc(CC(=O)NCC(c2ccc(N(C)C)cc2)N2CCOCC2)cc1OC (stereo not given)
    -0.6%	-0.3%
89: Cc1ccc(NC(=O)Cn2c(=O)cc(-c3ccccc3)c3c(C)nn(C)c32)c(Cl)c1
    0.5%	12%
90: COc1ccccc1CCNc1ncnc2nc[nH]c12
    0.4%	-0.6%
91: CCN1CCN(Cc2c(O)ccc3oc(C)c(C(=O)Nc4ccc(OC)cc4)c23)CC1
    0.2%	2.1%
92: Cc1nn(-c2ccc(N3CCCC3)nn2)c(C)c1CCC(=O)NCc1ccc(OC(C)C)cc1
    1.9%	-2.8%
93: CC(=O)c1cccc(NC(=O)CSc2nc3c(=O)n(C)c(=O)n(C)c3n2C)c1
    -0.6%	-0.9%
94: Cc1cc(Br)ccc1NC(=O)Cn1cc(S(=O)(=O)N2CCN(c3ccccc3F)CC2)c2ccccc2c1=O
    2.7%	-3.8%
95: Cc1ccc2nc(NC(=O)CSc3nccn3Cc3ccccc3)sc2c1
    -4.2%	-15%
96: COc1cccc(C(=O)Nc2ccc(-n3nncc3-c3ccccc3)cc2)c1OC
    4.3%	-2.9%
97: Cc1ccc(NC(=O)Cc2ccc(NC(=O)N3CCCCc4ccccc43)cc2)cc1Cl
    0.5%	-9.7%
98: CCc1cc(=O)[nH]c(SCc2nc(-c3ccccc3C)no2)n1
    -0.4%	2.8%
99: COc1ccccc1-c1cc(C(F)(F)F)nc(S(=O)(=O)CCCC(=O)Nc2cc(OC)c(OC)c(OC)c2)n1
    0.5%	4.7%
